Hedgehog inh – Sonic Hedgehog pathway inhibition. Shh-LIGHT2 Gli-luciferase reporter, 30 h. inhibition, % (concentration not given with the values). 22,000 compounds, 2.1% hits;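 active = replicate mean of 65% or more; inconclusive = mean lower but half the replicates past it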;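 also: pathway switched on by Shh-conditioned medium diluted 1 in 25 in low serum; 100 nL library stock added to about 40 µL; 0% = median of neutral wells and 100% = positive control level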
YB-1 expression – YB-1 expression inhibition; AID 434959; U2OS, qRT-PCR YB-1 vs CDIP delta delta Cp, 16 h; stronger effect = higher value; zero = DMSO, each unit about twofold; delta delta Cp (YB-1 minus CDIP) (concentration not given with the values); 30,000 compounds, 0.37% hits;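 active = delta delta Cp rounded down to an integer at or above 3, about 3 SD of DMSO wells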;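 also: higher means less YB-1 transcript or more CDIP transcript relative to DMSO; stock transfer was 100 nL into about 100 µL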
PD-1 reverse act – activators reversing PD-1 mediated T-cell inhibition; 29,000 tested, under 10 active; activation, % (no concentration beside the values); primary human CD4 T cells, PD-L1 beads, CellTiter-Glo 96 h;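 active = replicate mean of 50% or more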;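 also: 0% = median vehicle wells and 100% = positive control; 100 nL library stock added to about 50 µL; numbers are from one replicate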
MITF inhib – inhibitors of MITF; TRPM1 promoter luciferase, luminescence, 24 h; AID 2240; inhibition, % (test concentration not listed); 37,000 compounds, 0.28% hits;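 active = most replicates at 85% or more, or half of them and the mean; inconclusive = half reach 85% but not the mean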;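 also: human melanocyte line stably carrying TRPM1 promoter luciferase reporter; 0% = vehicle wells and 100% = a positive control; the first replicate is given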
* hit, by the source's call; u = inconclusive; x = not tested or not shown. These rows are one share of the data, so the mix of outcomes need not match the whole.

SMILES	Hedgehog inh	YB-1 expression	PD-1 reverse act	MITF inhib
COc1ccc(S(=O)(=O)Nc2cccc3c2O[C@H](CN(C)S(=O)(=O)c2ccc(Cl)cc2)[C@H](C)CN([C@@H](C)CO)C3=O)cc1	u	0.0088	0.6	4
COc1ccc(NC(=O)Nc2cccc3c2O[C@H](CN(C)S(=O)(=O)c2cn(C)cn2)[C@@H](C)CN([C@@H](C)CO)C3=O)cc1	0	-0.19	0.7	-15
Cc1ccc(S(=O)(=O)Nc2ccc3c(c2)C(=O)N([C@H](C)CO)C[C@H](C)[C@@H](CN(C)C(=O)Nc2ccccc2)O3)cc1	-37	0.11	1.8	6
CC(C)N(C(=O)Cn1c(-c2ccco2)nc2ccccc21)c1ccccc1	x	x	-4.6	-3
COc1ccc(OC)c(N(CC(=O)Nc2ccc(I)cc2C)S(C)(=O)=O)c1	x	x	1.0	16
C[C@H](CO)N1C[C@H](C)[C@@H](CN(C)C(=O)Nc2ccccc2)Oc2ccc(NS(=O)(=O)c3cccs3)cc2C1=O	u	-0.23	0.8	2
CC(C)NC(=O)N(C)C[C@H]1Oc2ccc(NC(=O)CCCN(C)C)cc2C(=O)N([C@@H](C)CO)C[C@@H]1C	-13	-0.092	0.4	-12
CC(=O)c1cccc(NC(=O)CN(C2CCCCC2)S(=O)(=O)c2ccccc2)c1	x	x	-2.4	-6
COc1ccc(S(=O)(=O)Nc2ccc3c(c2)C(=O)N([C@@H](C)CO)C[C@@H](C)[C@H](CN(C)S(=O)(=O)c2ccc(Cl)cc2)O3)cc1	14	-0.15	x	0
O=C(CCCN1C(=O)c2ccccc2C1=O)Nc1ccccc1F	x	x	1.3	-40
C[C@H](CO)N1C[C@H](C)[C@H](CN(C)C(=O)Nc2ccc(F)cc2)Oc2ccc(NS(=O)(=O)c3ccc(F)cc3)cc2CC1=O	-27	0.14	-0.9	-13
NC(=O)c1ccc2ccccc2c1	-17	0.027	0.6	-18
COc1ccc(CN(C)C[C@@H]2Oc3c(NC(=O)Nc4c(C)noc4C)cccc3C(=O)N([C@@H](C)CO)C[C@@H]2C)cc1	-45	0.15	1.1	-3
COc1cc(CSc2nnnn2-c2ccc(C)cc2C)cc(OC)c1OC	u	0.41	1.8	40
C[C@H]1CN([C@@H](C)CO)C(=O)c2cccc(NC(=O)c3cnccn3)c2O[C@@H]1CN(C)S(=O)(=O)c1ccc(Cl)cc1	0	0.28	3.8	-20
C[C@@H]1CN([C@@H](C)CO)C(=O)c2cc(NC(=O)CCCN(C)C)ccc2O[C@@H]1CN(C)S(C)(=O)=O	x	0.34	x	-4
C[C@H]1CN([C@@H](C)CO)C(=O)Cc2cc(NC(=O)C3CC3)ccc2O[C@H]1CN(C)S(=O)(=O)c1ccc(F)cc1	-21	-0.066	0.9	4
CC(=O)CC(c1ccc([N+](=O)[O-])cc1)c1c(O)c2ccccc2oc1=O (stereo not given)	-17	0.38	4.2	7
CC(=O)c1cccc(NC(=O)CCN2C(=O)c3ccccc3S2(=O)=O)c1	x	x	2.2	-7
CCOc1cc(/C=C2/SC(=N)N(c3nccs3)C2=O)ccc1OCCN1CCOCC1	38	-0.16	-49	35
CCC(CO)NC(=S)Nc1cc(C(F)(F)F)cc(C(F)(F)F)c1 (stereo not given)	28	-0.26	-1.9	30
C[C@H]1CN([C@@H](C)CO)C(=O)c2cccc(NC(=O)c3nc4ccccc4s3)c2O[C@H]1CN(C)Cc1ccc2c(c1)OCO2	11	0.07	-2.6	-21
Cc1nc(SCC(=O)c2ccc(Cl)s2)c2c(C)c(C)sc2n1	x	x	-1.1	-17
Cc1ccc(S(=O)(=O)Nc2cccc3c2O[C@H](CN(C)S(=O)(=O)c2ccc(F)cc2)[C@H](C)CN([C@H](C)CO)C3=O)cc1	25	-0.089	x	-5
C[C@H]1CN([C@@H](C)CO)C(=O)c2cccc(NS(=O)(=O)c3ccccc3)c2O[C@@H]1CN(C)Cc1ccc(Oc2ccccc2)cc1	25	-0.32	x	19
COc1ccc(S(=O)(=O)N(C)C[C@@H]2Oc3ccc(NC(=O)CCCCCC(=O)Nc4ccccc4N)cc3C(=O)N([C@H](C)CO)C[C@@H]2C)cc1	x	-0.33	0.0	5
C[C@H]1CN([C@@H](C)CO)C(=O)c2cccc(NC(=O)c3ccc(-c4nccs4)cc3)c2O[C@@H]1CN(C)C(=O)Nc1ccc(F)cc1	-54	0.33	2.6	-1
CS(=O)(=O)CCC(C(=O)Nc1cccc2ncccc12)N1C(=O)c2cc(Cl)c(Cl)cc2C1=O (stereo not given)	x	x	0.8	-9
Cc1cc(C(=O)Nc2cccc3c2O[C@@H](CN(C)CC2CC2)[C@H](C)CN([C@H](C)CO)C3=O)n(C)n1	12	-0.25	1.3	-1
C[C@H](CO)N1C[C@H](C)[C@H](CN(C)Cc2ccc(-c3ccccc3)cc2)Oc2ccc(NS(=O)(=O)c3ccc(Cl)cc3)cc2CC1=O	3	0.33	4.4	5
CC(C)=CCc1c(O)c(CC=C(C)C)c2c(c1O)C(=O)CC(c1ccccc1)O2 (stereo not given)	1	-0.65	-0.9	0
COc1ccc(NC(=O)Nc2ccc3c(c2)C(=O)N([C@H](C)CO)C[C@H](C)[C@H](CN(C)Cc2ccc(Cl)c(Cl)c2)OCCCC[C@@H](C)O3)cc1	23	0.0047	-3.7	17
C[C@@H]1CN([C@@H](C)CO)C(=O)c2cc(NC(=O)CCN3CCOCC3)ccc2O[C@H]1CN(C)C(=O)Nc1ccccc1	-18	-0.3	x	-10
COc1ccc2c(c1)c(=O)oc1cc(OC(C)C)ccc12	-150	-0.017	-2.6	9
C[C@@H]1CN([C@@H](C)CO)C(=O)c2cccc(NS(=O)(=O)c3cccs3)c2O[C@@H]1CN(C)S(=O)(=O)c1cn(C)cn1	-16	0.43	2.4	-4
COc1ccc(CN(C)C[C@H]2Oc3c(NC(=O)C4CCCCC4)cccc3C(=O)N([C@@H](C)CO)C[C@H]2C)cc1	-3	0.69	0.7	-1

Taken from above.
`C[C@@H]1CN([C@@H](C)CO)C(=O)c2cccc(NS(=O)(=O)c3cccs3)c2O[C@@H]1CN(C)S(=O)(=O)c1cn(C)cn1` in MITF inhib is listed with -4
`C[C@H]1CN([C@@H](C)CO)C(=O)c2cccc(NC(=O)c3ccc(-c4nccs4)cc3)c2O[C@@H]1CN(C)C(=O)Nc1ccc(F)cc1` in Hedgehog inh is listed with -54

New compounds follow
SMILES	Hedgehog inh	YB-1 expression	PD-1 reverse act	MITF inhib
C[C@@H]1CN([C@@H](C)CO)C(=O)c2cc(NC(=O)CCN3CCOCC3)ccc2O[C@@H]1CN(C)Cc1ccc(Cl)c(Cl)c1	x	1.4	x	-7
COc1ccc(NC(=O)c2cccc(C)c2)c(OC)c1	-47	-0.12	1.4	-15
Cc1cc2c(cc1O[C@@H]1O[C@H](CO[C@@H]3OC[C@@H](O)[C@H](O)[C@H]3O)[C@@H](O)[C@H](O)[C@H]1O)C(=O)c1ccccc1C2=O	-21	0.52	x	x
Cc1noc(C)c1S(=O)(=O)Nc1ccc2c(c1)C(=O)N([C@H](C)CO)C[C@H](C)[C@@H](CN(C)C(=O)c1ccncc1)OCCCC[C@@H](C)O2	-72	0.02	2.6	-15
C[C@@H]1CN([C@H](C)CO)C(=O)c2cccc(NS(=O)(=O)c3cn(C)cn3)c2O[C@H]1CN(C)CC1CC1	17	-0.62	0.3	-6
COC(=O)c1c(NC(=S)NCc2ccco2)sc2c1CCC2	x	x	-1.3	-12
COC(=O)CN1C=C(C(=O)OC)C(c2ccc(O)cc2)C(C(=O)OC)=C1	35	0.22	2.8	0
C[C@H]1CN([C@@H](C)CO)C(=O)c2cc(NC(=O)C3CCCCC3)ccc2O[C@@H]1CN(C)C(=O)Nc1ccc(F)cc1	x	-0.18	-0.5	-9
CC(=O)Nc1ccc(NC(=O)C2C3CCC(C3)C2C(=O)O)cc1 (stereo not given)	x	x	2.0	1
COc1ccc(C)cc1NC(=O)c1ccc(OCC(=O)Nc2cc(Cl)ccc2Cl)cc1	x	x	-3.1	-7
CCN(CC)c1c(C#N)c(SCC(=O)c2cccs2)cc2c1CCCC2	81*	0.65	-1.9	8
C[C@H](CO)N1C[C@H](C)[C@H](CN(C)S(=O)(=O)c2cccs2)Oc2c(NC(=O)Nc3ccc(F)cc3)cccc2C1=O	-32	-0.55	-1.6	0
C[C@@H]1CN([C@@H](C)CO)C(=O)c2cc(NC(=O)CCCN(C)C)ccc2O[C@H]1CN(C)Cc1ccc(C(F)(F)F)cc1	11	-0.0079	-0.2	6
O=C(O)c1ccc(Oc2ccccc2)cc1	-22	-0.59	1.9	-10
O=C(CC1(O)C(=O)N(Cc2ccccc2)c2ccc(Cl)cc21)c1ccc2c(c1)OCCO2 (stereo not given)	x	x	0.7	25
Cn1c(SCC(=O)Nc2ccc(Cl)cc2)nnc1-c1ccc(Cl)c(Cl)c1	x	x	-4.3	26
CC(C)(C)NC[C@@H](O)COc1nsnc1N1CCOCC1	-43	-0.27	x	-4
C=CCN(CC=C)CC(O)Cn1cnc2c1c(=O)n(C)c(=O)n2C (stereo not given)	18	-0.23	3.3	-15
CC(C)CCNC(=O)c1cccc2c1-c1ccccc1C2=O	26	0.047	-0.4	2
C[C@@H]1CN([C@H](C)CO)C(=O)c2cc(NS(C)(=O)=O)ccc2O[C@H]1CN(C)S(=O)(=O)c1ccc(Cl)cc1	17	-0.46	-3.2	-3
c1ccc(-c2n[nH]c3c2oc2ccccc23)cc1	-184	-0.62	-1.1	-19
C[C@@H]1CN([C@@H](C)CO)C(=O)c2cc(NC(=O)CCN3CCOCC3)ccc2O[C@@H]1CN(C)S(=O)(=O)c1ccccc1	-20	-0.37	-0.2	-5
Cc1cc(Cl)ccc1NC(=O)CNS(=O)(=O)c1ccc(Br)cc1	x	x	-2.0	-2
C[C@@H]1CN([C@H](C)CO)C(=O)c2cccc(NC(=O)Nc3ccc(C(F)(F)F)cc3)c2O[C@@H]1CN(C)C(=O)Nc1cccc2ccccc12	-7	-0.46	x	22
Cc1ccc(S(=O)(=O)Nc2cccc3c2O[C@@H](CN(C)S(=O)(=O)c2ccc(C)cc2)[C@@H](C)CN([C@@H](C)CO)C3=O)cc1	-8	-0.38	-0.3	15
CC(C)NC(=O)N(C)C[C@H]1Oc2ccc(NC(=O)C3CC3)cc2C(=O)N([C@@H](C)CO)C[C@H]1C	2	-0.64	1.5	-2
COc1ccc(S(=O)(=O)N(C)C[C@@H]2OCCCC[C@@H](C)Oc3ccc(NC(=O)Nc4c(C)noc4C)cc3C(=O)N([C@H](C)CO)C[C@@H]2C)cc1	56	0.47	-1.2	-5
C[C@H](CO)N1C[C@H](C)[C@H](CN(C)Cc2ccc(-c3ccccc3)cc2)Oc2ccc(NS(=O)(=O)c3cn(C)cn3)cc2C1=O	-24	0.6	0.7	7
C[C@H]1CN([C@@H](C)CO)C(=O)c2cccc(NS(C)(=O)=O)c2O[C@@H]1CN(C)C(=O)Nc1ccc(C(F)(F)F)cc1	-23	-0.38	2.5	-12
Cc1noc(C)c1NC(=O)Nc1ccc2c(c1)C(=O)N([C@@H](C)CO)C[C@@H](C)[C@@H](CN(C)S(=O)(=O)c1cccs1)O2	-2	-0.13	0.8	-5
C[C@@H]1CN([C@@H](C)CO)C(=O)Cc2cc(NC(=O)Nc3cccc4ccccc34)ccc2O[C@@H]1CN(C)S(=O)(=O)c1cccs1	19	0.66	-3.0	16
C[C@H]1CN([C@@H](C)CO)C(=O)Cc2cc(NC(=O)C3CC3)ccc2O[C@H]1CN(C)Cc1ccncc1	-13	0.14	0.9	2
C[C@@H]1CN([C@@H](C)CO)C(=O)c2cc(NC(=O)Nc3ccc(F)cc3)ccc2O[C@H]1CN(C)S(=O)(=O)c1ccc(Cl)cc1	x	-0.049	0.7	-15
Cc1ccc(S(=O)(=O)Nc2ccc3c(c2)C(=O)N([C@H](C)CO)C[C@H](C)[C@H](CN(C)S(=O)(=O)c2ccc(Cl)cc2)O3)cc1	x	1	1.7	1

Structures listed so far containing a thiophene ring, fused or not:
SMILES	Hedgehog inh	YB-1 expression	PD-1 reverse act	MITF inhib
C[C@H](CO)N1C[C@H](C)[C@@H](CN(C)C(=O)Nc2ccccc2)Oc2ccc(NS(=O)(=O)c3cccs3)cc2C1=O	u	-0.23	0.8	2
Cc1nc(SCC(=O)c2ccc(Cl)s2)c2c(C)c(C)sc2n1	x	x	-1.1	-17
C[C@@H]1CN([C@@H](C)CO)C(=O)c2cccc(NS(=O)(=O)c3cccs3)c2O[C@@H]1CN(C)S(=O)(=O)c1cn(C)cn1	-16	0.43	2.4	-4
COC(=O)c1c(NC(=S)NCc2ccco2)sc2c1CCC2	x	x	-1.3	-12
CCN(CC)c1c(C#N)c(SCC(=O)c2cccs2)cc2c1CCCC2	81*	0.65	-1.9	8
C[C@H](CO)N1C[C@H](C)[C@H](CN(C)S(=O)(=O)c2cccs2)Oc2c(NC(=O)Nc3ccc(F)cc3)cccc2C1=O	-32	-0.55	-1.6	0
Cc1noc(C)c1NC(=O)Nc1ccc2c(c1)C(=O)N([C@@H](C)CO)C[C@@H](C)[C@@H](CN(C)S(=O)(=O)c1cccs1)O2	-2	-0.13	0.8	-5
C[C@@H]1CN([C@@H](C)CO)C(=O)Cc2cc(NC(=O)Nc3cccc4ccccc34)ccc2O[C@@H]1CN(C)S(=O)(=O)c1cccs1	19	0.66	-3.0	16

Screens: PubChem, Broad Institute
